LANA-H2B inh – blockers of LANA interaction with H2A/H2B – biochemical, FP readout, HTS, primary screen; inhibition, % (no concentration beside the values); cell-free LANA-H2A/H2B peptide, fluorescence polarization; actives 0.6% (n = 320,000); in the data active = inhibition mostly above about 10%, no sharp cut-off; inactive = mostly below about 6.7%;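 also: stock transfer was 7.5 nL into about 10 µL; 0% = median of vehicle wells and 100% = median of positive control wells; one replicate is shown; the record names a cut of 25% in any replicate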
Vif A3G – inhibitors of Vif binding to APOBEC3G peptide, primary screen, biochemical, TR-FRET, GST-Vif 1-94, biotin-A3G peptide, dose response retest (AID 1117319); one-dose inhibition, %; IC50 in µM for titrated hits; TR-FRET GST-Vif / biotin-A3G peptide binding; higher % means a stronger effect; test concentration not given here; strong numbers were not always called active; Virion infectivity factor (Human immunodeficiency virus type 1 group M subtype B (isolate …; actives 0.57% (n = 260,000);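 active = above the screen mean plus three standard deviations and confirmed in dose response; inconclusive = results disagree or hit not tested in dose response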;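 also: Vif residues 1-94 fused to GST binding biotinylated APOBEC3G peptide 110-148; 0% = full assay without inhibitor and 100% = GST in place of GST-Vif; retest series ran down from 100 µM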
Ecoli growth – E. coli growth inhibition, primary screen, OD600; Escherichia coli growth, 23 h; stronger effect = lower value; AID 1053175, 2014; actives 0.21% (n = 330,000); OD600 absorbance (no concentration beside the values);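 active = OD600 absorbance below the run mean of sample wells minus 3.6 SD, in any replicate, cut at about 0.56 in these data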;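 also: stock transfer was 300 nL into about 60 µL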
A1 inh – caspase 3/7 activation in MEF A1-2A-BIM cells, primary screen, A1 inhibitor project, cell-based, luminescence, HTS | caspase activation, % (concentration not given with the values) | actives 0.066% (n = 330,000) | AID 2462, 2010 | Caspase-Glo 3/7 luminescence, 3 h; percent of clofoctol response, vehicle zero;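 active = over half of replicate activation scores above 10%, or exactly half above 10 with the replicate mean above 10; inconclusive = replicate mean below 10 yet half the replicates above 10; inactive = over half of replicates below 10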;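 also: wells of about 30 µL received 50 nL stock; many hits fall short of the cut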
B2AR ag – beta2AR agonists driving receptor internalization, primary screen, cell-based, FAP fluorogen, flow cytometry | Am2.2-beta2AR cells; reference of the scale not given here | response, % (no concentration beside the values) | actives 0.43% (n = 340,000);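 active = response above a set limit, near 3 SD of response in nonfluorescent compounds, cut at about 42% in these data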;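 also: stock transfer was 100 nL into about 11 µL; a reference agonist was the positive control; negative values mostly stem from fluorescent compounds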
UCH37 inh – inhibitors of human UCH37 deubiquitinase, primary screen, biochemical, Ub-AMC cleavage, fluorescence; Ubiquitin carboxyl-terminal hydrolase isozyme L5 (Homo sapiens), Q9Y5K5; AID 588478, 2011; actives 0.33% (n = 330,000); purified proteasome/UCH37; inhibition, % (test concentration not listed);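 active = mean of two replicates above 20%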;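 also: 0% = compound-free wells with enzyme and 100% = wells lacking proteasome; stock transfer was 100 nL into about 20 µL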
Target sequence (Q9Y5K5 whole entry, looked up): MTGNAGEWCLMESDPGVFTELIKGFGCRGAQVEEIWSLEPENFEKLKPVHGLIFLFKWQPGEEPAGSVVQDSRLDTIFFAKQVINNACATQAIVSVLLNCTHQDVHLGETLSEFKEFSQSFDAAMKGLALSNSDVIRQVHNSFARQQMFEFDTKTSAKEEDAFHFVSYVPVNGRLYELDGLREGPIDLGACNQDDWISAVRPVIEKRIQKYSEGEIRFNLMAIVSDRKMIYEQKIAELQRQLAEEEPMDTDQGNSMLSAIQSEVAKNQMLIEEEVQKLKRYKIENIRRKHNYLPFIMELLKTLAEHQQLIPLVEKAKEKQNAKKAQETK
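Material: human UCH37 enzyme supplied as purified proteasome complex. Measure: % inhibition of Ub-AMC cleavage fluorescence. Medium: pH 7.4 Tris-HCl (50 mM) with ovalbumin, ATP-MgCl2, DTT. Times: 30 min preincubation with enzyme, 25 min cleavage at room temperature. Detection: AMC fluorescence intensity at 355/460 nm.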
HNF4A DNA FP – change in binding of human HNF4A to DNA, primary screen, biochemical, fluorescence polarization, FITC-DNA; Hepatocyte nuclear factor 4-alpha (Homo sapiens), P41235; 1 h; activity change, % at 10 µM; actives 0.3% (n = 360,000); AID 1224865, 2016; in the data active = activity change above about 30%, passing the limit was not always enough;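 also: controls were the assay level and a saturating level of protein; the project sought stronger binding though the title names inhibitors; some compounds called inactive have numbers as strong as hits; positive values seem to mean higher polarization but the record does not say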
Target sequence (P41235 whole entry, looked up): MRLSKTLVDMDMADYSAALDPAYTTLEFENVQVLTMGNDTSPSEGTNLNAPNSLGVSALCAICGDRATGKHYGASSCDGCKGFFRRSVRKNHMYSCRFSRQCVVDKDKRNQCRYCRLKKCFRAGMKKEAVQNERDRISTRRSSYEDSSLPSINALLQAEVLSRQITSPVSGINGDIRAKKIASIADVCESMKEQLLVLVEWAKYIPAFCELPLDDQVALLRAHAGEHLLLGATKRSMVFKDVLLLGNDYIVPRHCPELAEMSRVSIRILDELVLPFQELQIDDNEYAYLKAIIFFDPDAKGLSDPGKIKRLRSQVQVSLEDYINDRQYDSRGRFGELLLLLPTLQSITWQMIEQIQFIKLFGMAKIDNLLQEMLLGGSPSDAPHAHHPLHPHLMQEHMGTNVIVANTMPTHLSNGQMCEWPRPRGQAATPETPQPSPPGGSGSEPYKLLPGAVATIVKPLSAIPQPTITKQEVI
Active calls of the source: *; u = inconclusive; x = not tested or not shown; & = joins results of further samples.

Molecule,HNF4A DNA FP,UCH37 inh,A1 inh,Vif A3G,B2AR ag,LANA-H2B inh,Ecoli growth
O=C(Nc1cccc(S(=O)(=O)NC2=NCCC2)c1)c1ccccc1,-2.9,2.1,0.4,x,-6,2.6,0.67
O=C(NCc1cccnc1)C(=O)NCC1OCCCN1S(=O)(=O)c1ccc(Cl)cc1 (stereo not drawn),-1.6,0.7,-0.3,0%,-1,-2.4,0.73
O=Cc1ccc2c(c1)CCN2Cc1ccccc1,4.1,-7.1,-0.8,-6%,-2,4.2,0.64
Cc1nn(Cc2c(F)c(F)c(F)c(F)c2F)c(C)c1NC(=O)c1cccc(COc2ccc(Cl)cc2)c1,-3.7,6.4,-0.2,-6%,12,-5.0,0.72
CCCCNC(=O)COC(=O)c1c2c(nc3ccccc13)CCC2,-11,-13,0.0,x,0,4.1,0.62
Cc1ccc(SC[C@H](Cc2ccccc2)N2CCN(C)CCC2=O)cc1,2.0,3.8,x,5%,-4,x,x
Cc1cc2cc3c(cc2nc1SCc1ccc(C(=O)O)cc1)OCCO3,-0.5,x,2.7,x,5,-0.9,x
O=C(OCC(=O)N1CCOCC1)c1ccc(Cl)cc1[N+](=O)[O-],1.1,0.3,u,x,-7,-0.4,0.67
O=C(CCNC(=O)c1ccccc1)OCC(=O)c1cccc(Cl)c1,-0.1,0.7,-0.8,x,8,-41,0.67
CCc1ccc(C(C(=O)NCCOC)N(C(=O)Cn2nnc3ccccc32)c2cccnc2)cc1 (stereo not drawn),5.0,0.3,0.3,6%,2,2.3,0.67
CC1CCCC(NC(=O)c2cccs2)C1C (stereo not drawn),1.9,-1.6,0.3,-1%,-2,x,0.69
NS(=O)(=O)c1ccc(NC(=O)Nc2ccc3c(c2)OCO3)cc1,-0.1,-2.4,-2.9,x,1,7.6,0.66
Cc1ccccc1OCc1nnc(SCC(=O)Nc2ccc(N3CCOCC3)cc2)n1C,0.2,1.3,1.2,x,5,-2.2,0.67
COc1ccc(C2C(C#N)=C(N)SC(N)=C2C#N)cc1OC,116,5.8,0.2,-2%,-3,1.1,0.64
O=C(NCCCN1CCCCCC1)c1cc2c(=O)oc3ccccc3c2s1,18,-5.9,1.9,x,-9,-3.7,0.68
COc1ccccc1NC(=O)CCc1nnc2ccc(NCc3ccco3)nn12,-0.1,5.5,-0.2,x,-4,1.7,0.66
COc1ccc(-c2sc3ccc(N4CCOCC4)cc3c2C#CCO)cc1,2.0,-2.6,-0.9,x,25,3.4,0.67
CCc1c(O)nc(SCC(=O)Nc2nc3ccccc3s2)n(C2CCCCC2)c1=O,7.9,2.0,-0.4,-3%,7,-2.9,0.62
OC(CN1CCN(c2cccc(Cl)c2)CC1)c1ccc(F)cc1 (stereo not drawn),0.7,2.4,-0.2,-1%,-2,0.8,0.64
CCOc1c2ccc(C(=O)NCCc3cccs3)cc2nn1CC,-2.5,-58,-1.8,1%,2,-1.3,0.68
CCCc1nc2c(c(=O)c3ccccc3n2C)c(=O)n1-c1cc(C)cc(C)c1,-4.9,4.8,0.7,-15%,-4,0.7,0.71
Cc1ccc(-n2c(=O)c3ccccc3n(CC(=O)C(C)(C)C)c2=O)cc1,-3.3,3.4,2.4,x,-2,-18,0.69
COc1ccc(COC(=O)c2cccc(S(=O)(=O)N3CCCC3)c2)cc1F,-0.3,1.6,-1.4,-1%,6,-5.2,0.67
O=C(CSc1nc(Nc2ccccc2)nc(N2CCOCC2)n1)Nc1ccccc1Cl,-1.6,-3.3,1.5,-3%,-3,7.1,0.69
O=C(COC(=O)C1CC2CCCC(C1)C2=O)NC(=O)c1ccc(OC(F)F)cc1 (stereo not drawn),-3.2,1.0,0.3,x,-4,-11,0.66
COc1ccc(-c2nnc(COc3ccc4ccccc4c3)o2)cc1OC,3.0,1.9,-0.3,-1%&22%,4,-7.1,0.68
O=C(NCc1ccc2c(c1)OCO2)c1ccc2c(c1)OCCO2,2.9,0.5,-1.2,u,-4,-5.3,0.71
Cc1ccc(N(C)C(=O)CCS(=O)(=O)c2cc3c(cc2Cl)NC(=O)CO3)cc1,0.9,4.2,0.0,x,9,7.9,0.67
CN(Cc1ccccc1NS(=O)(=O)c1ccc(Cl)cc1)C1CCCCC1,-7.6,2.5,0.3,x,-4,-3.3,0.71
CCN(CC)c1ccc(C(=O)OCC(=O)NC(C)(C)C)cc1,0.4,8.3,0.0,10%,14,-7.2,0.65
Cc1nnc(SCC(=O)N2CCN(S(=O)(=O)c3ccc(Cl)cc3)CC2)n(N)c1=O,-4.8,4.7,0.9,1%&3%,3,0.1,0.72
COCCn1c(-c2ccc(OC(F)(F)C(F)C(F)(F)F)cc2)nc2c1c(=O)[nH]c(=O)n2CC(C)C (stereo not drawn),-4.3,-9.1,0.6,-8%,-7,-16,0.74
CC(C)c1ccccc1OCC(=O)Nc1nnc(C2CC2)s1,-3.7,3.1,x,-5%,-7,x,0.67
O=C(COC(=O)c1cnccn1)c1ccc(C2CCCCC2)cc1,-0.8,1.4,0.2,x,7,1.6,0.66
O=C(CCCc1ccccc1)Nc1nccs1,-1.2,5.5,0.0,x,-6,-4.1,0.69
C=CCNC(=O)c1cc2nc(C3CC3)cc(C(F)F)n2n1,-3.4,-1.6,0.1,8%,7,1.3,0.65
Cc1nnc(SCC(=O)Nc2cc(S(=O)(=O)N3CCOCC3)ccc2C)s1,-0.1,1.6,x,6%,4,x,0.69
O=C(Cc1ccc(Cl)cc1Cl)Nc1ccc(OC(F)F)c(Cl)c1,0.4,0.4,-0.1,23%,-8,-1.5,0.66
Cc1[nH]c2ccccc2c1/C=N/NC(=O)CNC(=O)c1ccco1,8.7,x,-0.6,-1%,1,2.7,x
Cc1ccc2[nH]c(C(=O)O)c(NC(=O)c3ccccc3[N+](=O)[O-])c2c1,1.0,2.4,0.3,-2%,0,-6.8,0.64
CCc1ccccc1OCC(=O)Nc1ccc(C)c(S(=O)(=O)N2CCCCCC2)c1,3.0,3.1,-0.5,-2%,-1,0.9,0.68
CCC(CC)C(=O)N1CCCC(c2nc(-c3cccs3)no2)C1 (stereo not drawn),-1.7,0.1,0.3,0%,4,-3.0,0.73
CCN(/N=C/c1ccc(N(C)C)cc1)c1nc2ccccc2[nH]1,-1.0,x,x,10%,-9,x,x
CCOC(=O)c1sc(NC(=O)COC(=O)C(CCSC)NC(C)=O)nc1C (stereo not drawn),-0.7,1.5,0.7,x,-1,-0.7,0.7
Nc1ncnc(N2CCOCC2)n1,3.1,x,x,-4%,-3,x,x
O=C(C[C@@H]1C/C=C\CCC(=O)OC[C@H](Cc2ccccc2)NC1=O)N[C@@H](CO)Cc1ccccc1,4.0,4.4,-0.7,x,4,4.3,x
O=C(Nc1nc(-c2ccc(F)c(F)c2)cs1)C1=COCCO1,0.1,0.5,-3.1,-2%,-3,5.4,0.67
Cc1ccc[n+](-c2[nH]c(=O)sc2/C=N/NC(=O)c2ccccc2[O-])c1,-10,x,-0.4,51µM*,10,13,x
CC(=O)Oc1ccc(NC(=O)Cc2ccccc2)cc1,0.5,1.5,-7.2,0%,4,-2.6,0.71
Cc1ccc(-n2c(C)nnc2SCC(=O)N(C)c2c(N)n(Cc3ccccc3)c(=O)[nH]c2=O)cc1,-3.6,-0.7,1.8,x,-3,7.4,0.64
CC1CCCN(C(=O)C2CCCN(S(=O)(=O)c3cccc4nsnc34)C2)C1 (stereo not drawn),3.3,4.6,0.8,1%,-4,-1.5,0.7
O=C(OCC(=O)N1CCc2ccccc2C1)c1cccs1,2.4,0.9,-0.3,-8%,5,2.0,0.65
CC(=O)Nc1ccc(S(=O)(=O)N2CCc3cc4c(cc3C2)OCCCO4)cc1,0.7,3.8,-0.5,x,2,-4.8,0.75
COc1ccc(C)cc1S(=O)(=O)N(C)CC(=O)N1CCC(C(N)=O)CC1,0.9,4.4,1.2,-13%,2,3.8,0.69
COc1ccccc1-c1c(-c2ccc(OCC(=O)NN)cc2O)n[nH]c1C(F)(F)F,-2.1,4.5,-0.1,x,3,1.5,0.67
CCCOc1ccc(C(=O)NC(=S)N2CCN(c3cc4c(cc3F)c(=O)c(C(=O)O)cn4CC)CC2)cc1,-6.4,-5.2,0.2,x,-1,-1.2,0.084*
Cc1ccc(N(C(=O)c2ccc(S(=O)(=O)N3CCOCC3)cc2)C2C=CS(=O)(=O)C2)cc1C (stereo not drawn),24,0.6,-0.4,7%,2,1.5,0.64
COc1ccc(C(=O)OCC[N+]2(C)CCOCC2)cc1,-1.9,1.9,0.2,3%,-2,-0.5,0.72
Cc1ccnc(NS(=O)(=O)c2ccc(NC(=O)Cc3ccc(F)cc3)cc2)n1,-1.0,2.5,-5.1,-5%,-1,-0.7,0.66
CCn1c(-c2ccccc2)c[nH]c1=S,-3.4,12,-0.8,-4%,-2,2.6,0.65

(further entries)
Molecule,HNF4A DNA FP,UCH37 inh,A1 inh,Vif A3G,B2AR ag,LANA-H2B inh,Ecoli growth
O=C(CCN1C(=O)c2ccccc2S1(=O)=O)N1CCN(c2ccccc2F)CC1,-4.1,1.0,0.2,-1%,5,0.8,0.63
Cn1c2c(c(=O)c3ccccc31)CCCC2,-1.1,-22,0.3,x,-17,-0.4,0.63
N=c1n(CCN2CCCCC2)c2ccccc2n1CC(=O)c1cccc([N+](=O)[O-])c1,3.1,0.7,-0.7,x,-1,-0.2,0.62
Cc1cc(/C(N)=N/OC(=O)Nc2ccccc2)no1,0.5,4.9,-3.0,11%,-2,-3.1,0.68
O=C(CN1CCN(S(=O)(=O)c2ccc(F)cc2)CC1)NCc1cccs1,-1.1,3.3,-0.2,-5%,-1,-1.1,0.64
Cc1[nH]c2ccccc2c1C(=O)CN1C(=O)C(=O)N(C2CCCC2)C1=O,-2.6,0.6,0.3,4%,-8,-0.5,0.66
O=C(C=Cc1ccc(Cl)s1)c1ccc(Cl)s1,0.8,2.4,x,2%,8,x,0.64
CCn1c(=S)sc2c(=O)n(CC(=O)Nc3ccccc3C(F)(F)F)c(C)nc21,12,5.0,0.3,x,-4,-2.0,0.71
C=CCn1c(SCCOc2ccc(OC)cc2)nnc1C(CO)NC(=O)c1ccc(OC)cc1 (stereo not drawn),2.7,0.6,1.5,2%,-1,-1.4,0.69

Four entries picked at random from the list so far, as already listed:
Molecule,HNF4A DNA FP,UCH37 inh,A1 inh,Vif A3G,B2AR ag,LANA-H2B inh,Ecoli growth
Cc1[nH]c2ccccc2c1C(=O)CN1C(=O)C(=O)N(C2CCCC2)C1=O,-2.6,0.6,0.3,4%,-8,-0.5,0.66
O=C(CCN1C(=O)c2ccccc2S1(=O)=O)N1CCN(c2ccccc2F)CC1,-4.1,1.0,0.2,-1%,5,0.8,0.63
CCn1c(=S)sc2c(=O)n(CC(=O)Nc3ccccc3C(F)(F)F)c(C)nc21,12,5.0,0.3,x,-4,-2.0,0.71
O=C(C=Cc1ccc(Cl)s1)c1ccc(Cl)s1,0.8,2.4,x,2%,8,x,0.64
